NPYLR7 ag – agonists of mosquito NPYLR7 receptor, primary screen, cell-based, Aedes aegypti, calcium fluorescence, mosquito biting behavior | AID 1259423, 2018 | hit rate 0.15% among 270,000 | activation, % at 10 µM | HEK293T NPYLR7/Galpha15, GCaMP6s calcium fluorescence; in the data active = activation above about 40%;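 also: 0% = vehicle and 100% = reference agonist at the receptor; some compounds past the cut are filed as inactive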
NPYLR7 ag max-min – second read-out of NPYLR7 ag, no call of its own (marks repeat the call); activation, %; measured here: Max-Min RFU normalised activation; some inactives read as strong as hits;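 span of the calcium signal over five minutes; 0% = vehicle and 100% = native peptide agonist; compound fluorescence can raise it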
Numbers without * were called inactive. Some of the compounds tested, so the mix of outcomes need not match the whole.

SMILES	NPYLR7 ag	NPYLR7 ag max-min
Nc1ccccc1-c1nnnn1C1CC1	4	1
Cc1ccc(-n2ncc(C(=O)N3CCN(C)CC3)c2C)cc1	15	24
O=C(Cn1cc2c(n1)CCCCC2)NCCC1=CCCCC1	3	1
COCCN(Cc1ccc(OC)c(OS(=O)(=O)c2ccc(NC(C)=O)cc2)c1)C(=O)c1cccs1	7	5
CCc1nc(SCC(=O)N(C)Cc2n[nH]c3c2CCC3)n[nH]1	3	0
O=C(Cc1ccccc1)N(CC(=O)N1CCc2sccc2C1COc1cccc(F)c1)CC1CCCO1 (stereo not given)	-4	0
COc1ccc(/C=C/C(=O)N(C)Cc2ccc(Br)cc2)c(OC)c1	-3	-7
O=C(Nc1ccc(-c2onc3c2CCCC3)cc1)c1c(Cl)cc(Cl)cc1Cl	10	9
Cc1cnc(-c2ccccc2NC(=O)C2CC2c2cccc(F)c2F)[nH]1 (stereo not given)	5	2
COc1cc(OC)c(-c2nccn2CCc2ncc[nH]2)cc1OC	4	1
CCCCOc1ccc(C(=O)N2CCC3(CC2)C(=O)N(CC(=O)NCc2ccc4c(c2)OCO4)CN3c2ccccc2)cc1	-5	-4
CCOC(=O)C1CCCN(C(=O)c2cc(F)c(-n3ccnc3-c3ccccc3)cc2F)C1 (stereo not given)	5	4
C=C[C@@](C)(O)CCC1C(=C)CCC2[C@@](C)(CO)CCC[C@]12C (stereo not given in full)	-5	-10
CN(Cc1ccc(N2CCCCC2)cc1)S(=O)(=O)c1ccsc1C(=O)O	-3	-3
O=C(CNC(=O)COc1ccccc1)N=Nc1c(O)n(CCc2ccccc2)c2ccccc12	-11	-17
O=C(CN(Cc1ccco1)C(=O)C1CC=CCC1)Nc1ccccc1Br (stereo not given)	-4	-2
Cc1ccccc1N1CCN(c2cc(Cl)nc(SCC(=O)NCCCN3CCCCC3C)n2)CC1 (stereo not given)	15	23
O=[N+]([O-])C(C=Nc1ccccc1)=CNc1ccccc1	-10	-13
CN1CCN([C@H]2[C@@H]3OC[C@@H](O3)[C@@H](NCc3cnc4ccccc4c3)[C@@H]2O)CC1	-8	-15
Oc1ccc(Nc2nccc3[nH]c(-c4ccccc4)cc23)cc1	14	12
CC(C)CCn1c(=S)[nH]c2ccccc21	-3	-10
CCOC(=O)c1ccc(S(=O)(=O)Nc2nc(C3CC3)no2)cc1	2	1
Cc1cc(C)c(/C=C/C(=O)Nc2sccc2C#N)cc1C	8	3
COc1ccc(-c2nn3c(N4CCCCCC4)cc(C)nc3c2C)cc1OC	7	11
CC(=O)NC1C(=O)N(CCCOc2ccccc2)c2ccc(Cl)cc21 (stereo not given)	-2	-2

Following part.
SMILES	NPYLR7 ag	NPYLR7 ag max-min
COc1ccc(OCc2nc(C(=O)NCc3ccccn3)cs2)cc1	-3	0
O=C1C(=O)N2C(=C1C(=O)c1ccccc1)c1ccccc1CC21CCCC1	2	-1
O=C(c1ccccc1Oc1ccccc1)N1CCC2(CCCO2)CC1	9	6
CCCc1cc(C(=O)N(CCC)C2CCc3ccccc3C2)n[nH]1 (stereo not given)	-2	-8
COC(=O)Cn1c(=O)c2c(nc3n(CC4CCCO4)c(C)c(C)n23)n(C)c1=O (stereo not given)	5	5
Cc1sc2nc(NC3CCCCC3)[nH]c(=O)c2c1-c1ccccc1	0	2
CCOc1ccc(C(=O)N2CCN(C(=O)c3cn(CC)cc4c(=O)n(-c5ccccc5)nc3-4)CC2)cc1	0	-1
COc1ccc(CC(=O)Nn2cnc3c(cnn3C(C)(C)C)c2=O)cc1OC	9	5
COc1ccc(OC)c(S(=O)(=O)N2CCN(Cc3ccc(C(F)(F)F)cc3)CC2)c1	0	5
O=C(COc1ccc2c(c1)OCO2)N1N=C2C(=Cc3ccco3)CCCC2C1c1ccco1 (stereo not given)	8	11
CCCN1CCC(N(C)CCN(C)C)CC1	-12	-15
Cc1ccc(C(=O)Nc2cccc(-n3nc(OCC(C)C)nc3-c3ccc(C)cc3)c2)cc1	18	23
Clc1ccc(N2N=C(/C=C/c3cccs3)CC2c2cccs2)cc1 (stereo not given)	3	0
CN(CCC1CCOCC1)C(=O)c1ccc(OC2CCN(C(=O)C3CC3)CC2)cc1	24	19
O=C(NC1CCN(Cn2nc3ccccn3c2=S)CC1)c1ccccc1	2	2
C=CCN(CC(=O)N1N=C(c2cccc(OC)c2)CC1c1ccc(F)cc1)C1CCCC1 (stereo not given)	-2	0
O=C(NCCN1CCOCC1)c1cc(-c2ccccc2)nc2cc(-c3ccccc3)nn12	0	7
Cc1ccc(OCc2nc(CN(C(=O)c3ccc4c(c3)OCO4)C(C)C)cs2)cc1	-4	-2
Cc1cc2cc(CNS(=O)(=O)N(C)C)ccc2[nH]1	7	7
O=C(O)c1scnc1C1CC1	2	2
Nc1ccc(S(=O)(=O)Nc2nccc(C(F)(F)F)n2)cc1	2	-1
CCCCN(Cc1cccn1C)C(=O)CN(CCCOCC)C(=O)Nc1ccc(C(C)C)cc1	-5	-6
O=C(CSc1ccc(-c2ccc(-n3ccnc3)cc2)nn1)N1CCc2ccccc21	16	6
COc1coc(C(=O)Nc2nc(C)cs2)cc1=O	11	1
CCC(Sc1nc2c(sc3ccccc32)c(=O)n1CCCOC)C(=O)NC1CCCC1 (stereo not given)	-4	-6

One compound at a time, as listed above. Values in the order: NPYLR7 ag, NPYLR7 ag max-min
Listed for `COc1ccc(CC(=O)Nn2cnc3c(cnn3C(C)(C)C)c2=O)cc1OC` = 9, 5
Listed for `Cc1cc2cc(CNS(=O)(=O)N(C)C)ccc2[nH]1` = 7, 7

Remaining list, next part:
SMILES	NPYLR7 ag	NPYLR7 ag max-min
Cc1cccc(NC(=S)N2CC(=O)N3CCc4ccccc4C3C2)c1 (stereo not given)	31	15
C/C=C/C(=O)Oc1cc(C)[nH]c(=O)c1[N+](=O)[O-]	0	-1
Cc1ccccc1C(=O)NCC1CN(c2ccc(F)cc2)C(=O)O1 (stereo not given)	0	3
O=C(NCCOc1ccccc1)c1ccc(-c2n[nH]c3c2CCCc2ccccc2-3)cc1	1	11
Cc1ccccc1CN1CCC(CN(Cc2cccnc2)C(=O)c2ccccn2)CC1	13	8
CCN(CC)CCSc1ccc(-c2ccccc2)nn1	7	0
COc1cccc(CNC(=O)N2CCN(c3ncccc3NC(=O)c3ccc4c(c3)OCO4)CC2)c1	3	-1
CCn1nc(C(=O)N2CCCCCC2)c2c1CCC(NCCc1nc(-c3ccccc3)cs1)C2 (stereo not given)	23	12
O=C(c1cn(C2CCCCC2)nn1)N1CCOc2ccc(Cl)cc2C1	4	3
Cc1cccn2cc(CSc3nnc(C4CC4)n3C3CC3)nc12	-4	5
CCOCCCNC(=O)CSc1nc2ccccc2c(=O)n1C1CC1	0	13
CCNC(=O)N1CC(C(=O)NC(C)c2ccccc2)CC(c2ccc(F)c(C)c2)C1 (stereo not given)	6	3
C=CCC(NC(=O)Nc1ccc(S(C)(=O)=O)cc1)c1ccncc1 (stereo not given)	15	8
O=C1CC(Nc2ccc(Cl)cc2)C(=O)N1c1ccc(Cl)c(Cl)c1 (stereo not given)	0	0
C=CCn1c(=O)c2c(nc3n(-c4ccccc4N)c(C)c(C)n23)n(C)c1=O	-6	-10
COc1ccc(N2C(=O)C3CC=CC(C)C3C2=O)cc1Cl (stereo not given)	10	12
CCS(=O)(=O)Oc1ccccc1CN(C(=O)C(C)C)C(C)C	-3	2
CCOc1cccc(CN2CCC(Cc3nnc(SC)n3C)CC2)c1O	7	-3
O=C(CC1CSc2nc3c(c(=O)n21)CCCC3)NCc1ccc(F)cc1 (stereo not given)	-1	-2
CC(=O)NCC1=CCCN(Cc2nc3ccsc3c(=O)[nH]2)C1	15	9
COCCCN1C(=O)N(Cc2ccccc2)C(=O)C12CCN(Cc1c(F)cccc1Cl)CC2	18	9
O=C(Cn1nnc(-c2cccc(Cl)c2)n1)N1CCNC1=O	1	2
CCC(C)(C)NC(=O)[C@H](CC(C)C)N1CC[C@@]2(CCCN2C(=O)CCC(C)=O)C1=O	0	-1
COc1cccc(C(=O)N(CCc2ccccc2)C(C)c2nc3cc(Cl)ccc3c(=O)n2-c2ccc(C)cc2)c1 (stereo not given)	-1	-9
CC(C)S(=O)(=O)NC(=O)C1(C)CCN1C(=O)Cc1ccccc1Cl (stereo not given)	4	1

Next section
SMILES	NPYLR7 ag	NPYLR7 ag max-min
CCCn1ccnc1-c1c(-c2ccccc2)ncn1CCS(C)(=O)=O	0	-1
COc1ccc(C(=O)N2CCc3c(nc(-c4ccncc4)nc3N(C)C)C2)cc1C	7	6
Cc1onc(-c2ccccc2Cl)c1C(=O)Nc1nc(-c2ccc([N+](=O)[O-])cc2)cs1	-11	-10
COc1ccc(C2CC(C(F)(F)F)n3ncc(C(=O)N4CCOCC4)c3N2)cc1 (stereo not given)	11	5
CCOc1ccccc1C(=O)N1[C@@H](c2ccco2)[C@@H](CO)C[C@]12CCCCNC2=O	1	12
c1ccc(Cc2nc(C3CCN(c4ncccn4)CC3)n[nH]2)cc1	-3	-8
O=C(CSc1nnc2ccc(-c3ccc(Cl)cc3)nn12)N1CCN(c2ccccc2)CC1	-12	-4
CC(C)c1nc(CN2CCC3(C2)NC(=O)N(C(C)C)C3=O)no1 (stereo not given)	5	-10
CC1(C)CN(C(=O)C2CCC2)C2(S1)C(=O)N(Cc1ccc(F)cc1)c1ccccc12 (stereo not given)	-2	0
Cc1ccccc1C(=O)N[C@@H]1CCCCC1NC(=O)C1CCCN(C(=O)c2ccccc2Br)C1 (stereo not given in full)	5	15
CCC(C)NC(=O)COC(=O)c1n[nH]c2ccccc12 (stereo not given)	6	8
O=[N+]([O-])c1cc(S(=O)(=O)N2CCCC2)ccc1NN=Cc1ccco1	-12	-18
COc1ccc(-c2csc(-n3[nH]c(-c4ccccc4)c(N=Nc4ccccc4C(=O)N4CCOCC4)c3=O)n2)cc1	4	11
O=C(c1ccc(Cl)cc1)c1ccsc1	2	1
CS(=O)(=O)c1ccc(CC(=O)Nc2nnc(-c3cc4ccccc4o3)o2)cc1	4	3
Cn1ccnc1SCc1cc(=O)c(OC(=O)CC2CCCCC2)co1	-4	-6
CN1CC2(CCCN(C(=O)c3cc4sccc4[nH]3)CC2)OC1=O (stereo not given)	15	11
Cn1nc(Br)c2c(NC(CO)C(C)(C)C)ncnc21 (stereo not given)	-3	-2
Cc1ccccc1Cn1c(=O)c2c(nc3n(CCCN(C)C)c(C)cn23)n(C)c1=O	-5	-7
O=c1ccc(-c2ccc(F)cc2)nn1CCNS(=O)(=O)CCc1ccccc1	-1	-2
COCCCNC(=O)C(NC(=O)c1ccc(OC)cc1)C1CCN(C(=O)c2ccc(Cl)cc2)CC1 (stereo not given)	-6	-9
O=C(C1CC1)N1CCN(Cn2nnc3ccccc3c2=O)CC1	1	4
COc1ccc(C2CCCN2c2nnnn2-c2ccccc2)cc1 (stereo not given)	19	17
O=c1cc(NCc2ccccc2Cn2cccn2)nc2ccccn12	3	-1
CCN(CC)c1nccc(-c2cc(C(=O)O)ccn2)n1	21	13

Going on with the list.
SMILES	NPYLR7 ag	NPYLR7 ag max-min
Cc1cc(=O)[nH]c(-n2nc(C)c(CCC(=O)Nc3cc(C)on3)c2C)n1	10	8
Cc1cccc(OCCN2CCCC(O)(CN(C)C)C2)c1C (stereo not given)	-3	-10
COCC(=O)N1CCCN(Cc2ncc[nH]2)CC1	0	1
Cn1c(-c2ccco2)n[nH]c1=S	3	11
Cc1ccc2nc(COC(=O)CN3C(=O)C4CC=CCC4C3=O)cc(=O)n2c1 (stereo not given)	4	10
CC(C)c1cc(C(=O)N[C@@H]2C[C@@H](CO)N(C)C2)on1	0	14
Cc1ccccc1NC(=O)CC(=O)N(Cc1ccccn1)C1CCCCC1	5	-5
CCc1cc(CNC(=O)NC2CCN(c3ccc(F)cc3F)C2)[nH]n1 (stereo not given)	5	2
O=C(c1ccc(N2CCCCC2=O)cc1)N1CCN(S(=O)(=O)c2ccc(F)cc2)CC1	8	6
CCOc1ccc(N2C(=O)CC(/C=C3/N(C)c4ccccc4C3(C)C)C2=O)cc1 (stereo not given)	-3	2
CN1CCCc2cc(CNCC3CNc4ccnn4C3)ccc21 (stereo not given)	8	8
c1cc(N2CCN(c3nccn4ccnc34)CC2)ccn1	0	-2
COc1ccc(-c2nnc(SCc3nnc(-c4ccco4)o3)o2)cc1OC	21	25
C=CCn1c(C)c(C)n2c3c(=O)n(Cc4ccc(F)cc4)c(=O)n(C)c3nc12	-2	5
Nc1nc(COc2ccc(F)cc2F)nc(Nc2ccccc2)n1	5	2

Two entries from above, reformatted:
Sequence of screens: NPYLR7 ag	NPYLR7 ag max-min
> Cc1ccccc1NC(=O)CC(=O)N(Cc1ccccn1)C1CCCCC1
    5	-5
> CCc1cc(CNC(=O)NC2CCN(c3ccc(F)cc3F)C2)[nH]n1 (stereo not given)
    5	2

Structural class, the entries above containing a thiophene ring, fused or not
SMILES	NPYLR7 ag	NPYLR7 ag max-min
COCCN(Cc1ccc(OC)c(OS(=O)(=O)c2ccc(NC(C)=O)cc2)c1)C(=O)c1cccs1	7	5
O=C(Cc1ccccc1)N(CC(=O)N1CCc2sccc2C1COc1cccc(F)c1)CC1CCCO1 (stereo not given)	-4	0
CN(Cc1ccc(N2CCCCC2)cc1)S(=O)(=O)c1ccsc1C(=O)O	-3	-3
Cc1cc(C)c(/C=C/C(=O)Nc2sccc2C#N)cc1C	8	3
Cc1sc2nc(NC3CCCCC3)[nH]c(=O)c2c1-c1ccccc1	0	2
Clc1ccc(N2N=C(/C=C/c3cccs3)CC2c2cccs2)cc1 (stereo not given)	3	0
CCC(Sc1nc2c(sc3ccccc32)c(=O)n1CCCOC)C(=O)NC1CCCC1 (stereo not given)	-4	-6
CC(=O)NCC1=CCCN(Cc2nc3ccsc3c(=O)[nH]2)C1	15	9
O=C(c1ccc(Cl)cc1)c1ccsc1	2	1
CN1CC2(CCCN(C(=O)c3cc4sccc4[nH]3)CC2)OC1=O (stereo not given)	15	11

Screening results deposited in PubChem by Fisher Drug Discovery Resource Center.
